Rce1 inh = blocks yeast Ras-converting enzyme | calls only | Q03530 | yeast membranes, quenched prenylated peptide cleavage fluorescence | AID 2563 | hit rate 0.27% among 290,000;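 active = fall in fluorescence gain of 50% or more versus controls, with final raw signal at or below 3038400; inconclusive = same 50% fall but final raw signal above 3038400; inactive = fall in fluorescence gain under 50%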;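 note: plate controls were neutral control wells for no effect and wells lacking membranes for full effect; tested at 10 µM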
UUG fidelity = yeast start codon fidelity modulation | S. cerevisiae UUG-firefly luciferase reporter, luminescence/redox ratio | activity score, % at 18.7 µM | hit rate 0.13% among 350,000;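 active = replicate mean at a twofold rise or more, about +100% in these data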;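 note: firefly luciferase made from a UUG start codon reports start codon fidelity; reporter light over untreated wells divided by growth signal over untreated wells; some hits fall short of that in this replicate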
HIV Env fusion = blocks HIV Env-driven cell-cell fusion | HeLa-JRFL Env/CEM21 cell fusion, luciferase | inhibition, % at 12.3 µM | hit rate 1.1% among 360,000 | AID 651610;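 active = mean replicate inhibition score of at least 50 and every replicate individually at or above 50; inconclusive = only one of the two criteria met; inactive = mean below 50 and not all replicates reaching 50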;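 note: 0% = plate neutral controls and 100% = maraviroc near 300 nM; one replicate is shown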
eIF4H inh = inhibitors of RNA binding by human eIF4H. Q15056. eIF4H fluorescence polarization binding assay. inhibition, % at 35 µM. hit rate 0.94% among 290,000;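 active = 50% or more with normal probe brightness, or confirmed in later tests; inconclusive = above 50% with abnormal brightness, or retests that disagree; inactive = below 50% or failed in later tests; about a fifth of its hits are not listed in these tables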;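 note: calls also rest on retests at 20 µM and on dose response follow-up; 0% = protein and probe with vehicle and 100% = probe without protein; strong numbers were not always called active; many hits fall short of the cut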
CSC inhib = cancer stem cell inhibition. cancer stem cell-like cells viability, luminescence. inhibition, % at 7.5 µM. hit rate 1.1% among 300,000. AID 2717;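 active = mean at 75% or more and at least half the replicates too; inconclusive = mean and replicates disagree; tested in HMLE shEcad cells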;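 note: 0% = median of negative and 100% = median of positive control wells; the first replicate is given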
MT1-MMP act inh = MT1-MMP (human) activation inhibition. P50281. HT1080 RFP-PRO-GFP cells, GFP/RFP ratio fluorescence, overnight; percent of plate control window, DMSO zero. GFP/RFP ratio change, % at 20 µM. hit rate 0.061% among 360,000. AID 651647;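 active = GFP/RFP ratio change of at least 30% with cell ATP level not reduced by more than half and red fluorescence within 50% of control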; note: strong numbers were not always called active
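Material – HT1080 RFP-PRO-GFP cells · Control set – DMSO wells and RFP-L50D-GFP cells · Incubation – overnight cell settling, then overnight compound exposure, 37 °C, 5% CO2 · Compound dosing – single-point 20 µM compound, 1% DMSO · Read-out – GFP/RFP fluorescence ratio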
PABP polyA inh = PABP-poly(A) binding inhibition. P11940. PABP-poly(A) RNA binding, fluorescence polarization. inhibition, % at 35 µM. hit rate 1% among 290,000;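 active = 50% or more with normal probe brightness, or confirmed in later tests; inconclusive = above 50% with abnormal brightness, or retests that disagree; inactive = below 50% or failed in later tests; about a fifth of its hits are not listed in these tables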;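 note: calls also rest on retests at 20 µM and on dose response follow-up; controls were probe without protein and protein plus probe with vehicle; some compounds called inactive have numbers as strong as hits; many hits fall short of the cut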
Target sequence (P11940 whole entry, looked up): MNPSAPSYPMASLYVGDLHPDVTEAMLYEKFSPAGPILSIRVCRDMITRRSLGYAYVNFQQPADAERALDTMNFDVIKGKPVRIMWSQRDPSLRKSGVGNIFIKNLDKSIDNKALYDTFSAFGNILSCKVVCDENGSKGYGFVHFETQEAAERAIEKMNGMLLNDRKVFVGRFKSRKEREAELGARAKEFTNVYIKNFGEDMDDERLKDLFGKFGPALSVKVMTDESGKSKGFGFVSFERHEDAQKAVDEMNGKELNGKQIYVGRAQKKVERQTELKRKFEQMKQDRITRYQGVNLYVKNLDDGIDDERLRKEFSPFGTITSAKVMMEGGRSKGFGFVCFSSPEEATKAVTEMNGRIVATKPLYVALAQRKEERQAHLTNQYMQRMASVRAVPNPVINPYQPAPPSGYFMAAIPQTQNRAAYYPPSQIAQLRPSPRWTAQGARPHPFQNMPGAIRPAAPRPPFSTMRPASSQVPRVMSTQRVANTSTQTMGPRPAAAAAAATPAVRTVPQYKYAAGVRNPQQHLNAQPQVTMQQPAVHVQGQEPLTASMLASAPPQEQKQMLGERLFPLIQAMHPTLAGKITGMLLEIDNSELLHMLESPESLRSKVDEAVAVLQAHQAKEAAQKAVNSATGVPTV
eIF4H inh retest = recorded beside eIF4H inh, whose call it bears; inhibition, %; compound at 20 µM; confirmation average;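 mean of two retest wells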
PABP polyA inh retest = also measured in PABP polyA inh; calls as there; inhibition, %; compound at 20 µM; confirmation repeats;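 mean of two retest wells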
MT1-MMP act inh RFP = recorded beside MT1-MMP act inh, whose call it bears; RFP signal change, %; measured here: RFP expression control read;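 0 = vehicle wells; hits needed this value within 50% of zero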
Active calls of the source: *; i = inactive; u = inconclusive; x = not tested or not shown.

SMILES | Rce1 inh | UUG fidelity | HIV Env fusion | eIF4H inh | CSC inhib | MT1-MMP act inh | MT1-MMP act inh RFP | PABP polyA inh | others
Cc1ccc(S(=O)(=O)N(C)c2ccc(C(=O)O)cc2)cc1 | i | -13.5 | 13.3 | 0.6 | -9.5 | 0.2 | -0.1 | -5.9
CCN(CC(=O)NC1CCS(=O)(=O)C1)c1ccc([N+](=O)[O-])cc1C#N (centres undefined) | x | -0.7 | x | x | -12.0 | -0.9 | 3.8 | x
N#CC1=C(N)NC(SCc2ccccc2)=C(C#N)C12CCCC2 | i | x | -16.2 | -1.7 | 78.2* | 2.8 | 2.8 | 5.4
N#C/C(=C/c1ccc(N2CCCCC2)cc1)c1cccc(F)c1 | i | -14.6 | -45.3 | -9.7 | x | -10.6 | -6.3 | 1.4
CCC(Oc1ccccc1)C(=O)Nc1ccc(S(=O)(=O)Nc2ncccn2)cc1 (centres undefined) | x | -13.6 | 4.0 | -11.2 | -5.3 | 1.5 | -2.8 | 17.7
COc1cccc(N2CCN(C(=O)CCSCc3ccccc3F)CC2)c1 | i | x | -2.0 | 4.1 | 5.9 | 3.3 | 5.4 | 4.2
S=c1[nH]nc(COc2ccccc2)n1/N=C/c1ccncc1 | i | -7.6 | 11.2 | 11.3 | -10.0 | 0.2 | -0.9 | -0.2
COc1ccccc1OCCNS(=O)(=O)c1ccc2oc3ccccc3c2c1 | i | x | 57.6* | -17.4 | 6.8 | -0.7 | -3.6 | 118.6 | eIF4H inh retest=5.1;PABP polyA inh retest=10.7
COc1ccc(C/C(N)=N/OC(=O)COc2ccccc2C)cc1 | i | x | -26.2 | -4.9 | -1.4 | -1.2 | -2.5 | 5.0
COc1ccc(CCNC(=O)CSCC(=O)Nc2cc(S(C)(=O)=O)ccc2Cl)cc1 | x | -25.4 | -15.9 | x | 8.0 | -4.3 | -0.2 | x
COc1cccc(-c2nc(CS(=O)CC(=O)NCc3ccc4c(c3)OCO4)c(C)o2)c1 (centres undefined) | i | -11.2 | x | -5.2 | 1.5 | 0.2 | 2.6 | 14.2
Cc1cccc(OCCCC(=O)NNC(=O)c2cccc(N(C)C)c2)c1 | x | -12.9 | 4.2 | x | -2.6 | -0.6 | 4.2 | x
COc1ccc(Cn2nnnc2C(c2ccc(F)cc2)N2CCN(C3CCCC3)CC2)cc1 (centres undefined) | i | x | x | 2.2 | -6.3 | 0.4 | 2.3 | -7.4
COc1ccc(CCC(=O)NNC(=O)Nc2ccccc2Cl)cc1 | i | 9.9 | 0.9 | -0.9 | -9.9 | -3.0 | -2.0 | 0.5
C=CCN1N=C(/C=C/c2ccc(C)cc2)CCC1=O | i | -1.3 | -8.6 | -3.9 | -0.1 | 1.8 | -1.9 | 2.3
COC(=O)c1ccc(N=Nc2c(C)[nH]n(-c3ccccc3)c2=O)cc1 | i | -17.1 | 7.8 | -3.9 | -9.0 | 1.1 | -0.1 | -5.1
CC1CCN(S(=O)(=O)c2ccc(NC(=O)c3ccccc3F)cc2)CC1 | x | 12.7 | 14.1 | -6.6 | -2.3 | -1.2 | -19.6 | 6.7
COc1ccc(CN2CCN(C(=O)c3cccc4ccccc34)CC2)cc1Br | i | -14.2 | 8.1 | 6.5 | 11.7 | -2.3 | -4.6 | 23.2
O=C(CCSc1nc(-c2ccco2)cc(C(F)(F)F)n1)NCCN1CCOCC1 | i | -9.8 | 10.1 | -7.3 | 5.2 | 0.5 | 3.9 | 12.6
O=C(C1=NN[C@@H]2C(=O)N(c3cccc(F)c3)C(=O)[C@H]12)c1ccc2ccccc2n1 | i | -2.2 | -20.9 | -3.6 | -2.8 | -2.8 | 4.5 | 7.9
C=CCOc1ccc(/C(O)=C2\C(=O)C(=O)N(CCOC)C2c2cccnc2)cc1 (centres undefined) | i | -5.6 | -34.0 | -9.4 | x | -2.1 | 2.4 | 6.8
CCOc1ccc(N(C)S(=O)(=O)c2ccc(C)c(C(=O)N3CCN(Cc4ccc5c(c4)OCO5)CC3)c2)cc1 | x | -5.8 | 9.5 | x | 10.3 | 0.7 | -20.9 | x
Cc1ccccc1NC(=S)NN1CCN(C)CC1 | i | 20.0 | x | -5.3 | -9.2 | x | x | 4.3
CCC1(C)Cc2ccccc2-c2nc(NCCO)n(-c3ccc(C)cc3)c(=O)c21 (centres undefined) | u | -6.0 | -110.9 | -9.3 | 19.5 | -8.8 | -6.8 | -9.2
Cc1ccc(C(=O)NCCCNC(=O)c2ccc(Cl)cc2)cn1 | i | x | -2.0 | -9.7 | x | 3.0 | 5.9 | -2.8
CCCCCCn1c(=O)n2n(c1=O)C[C@]1(OC(=O)NCc3ccc(OC)c(OC)c3)CN(S(=O)(=O)c3ccc(C)cc3)C[C@]1(O)C2 | x | -10.3 | -69.1 | x | x | -2.1 | -13.0 | x
CC1(C)NC(=O)N(CC(O)CNC23CC4CC(CC(C4)C2)C3)C1=O (centres undefined) | i | -2.8 | -224.0 | -2.1 | -10.1 | -0.9 | 5.4 | 1.5
COc1ccc(CCNC(=S)N2CCN(S(=O)(=O)c3ccccc3F)CC2)cc1 | i | -13.1 | -35.7 | 0.3 | 6.1 | -1.0 | 0.8 | 0.4
CCOC(=O)c1[nH]c(C)c(C(=O)NCCc2ccc(OC)cc2)c1C | i | -9.6 | x | -8.0 | -19.5 | 0.5 | -3.3 | -9.8
COc1cc(NC(=O)Cc2cccc3ccccc23)c(C(=O)O)cc1OC | i | -4.5 | -0.9 | -7.0 | x | 2.2 | 0.7 | 6.5
Cc1nnc(SCC(=O)Nc2ccc(F)cc2)n(N)c1=O | i | -10.5 | 2.8 | -3.8 | 0.3 | -2.4 | -3.7 | 6.1
CCOC(=O)c1ccccc1NC(=O)c1ccccc1N(C)S(C)(=O)=O | i | x | x | -4.8 | -3.5 | 4.6 | 6.2 | 3.0
CCCCC(=O)Nc1ccc(C(=O)c2ccccc2)cc1 | i | 1.0 | -0.1 | 1.3 | -1.6 | -0.3 | -4.9 | -10.6
NC(=O)N1CCc2ccccc21 | i | x | 3.8 | 6.4 | -3.5 | -2.3 | 3.3 | 8.6
COc1ccc(-c2cnnc(N/N=C/C(C)=C/c3ccccc3)n2)cc1 | i | x | x | 4.4 | -7.0 | x | x | -10.8
Clc1ccc(CSCCc2ccncc2)cc1 | i | x | x | 2.4 | x | -5.6 | -19.1 | 13.6
CC1CC1C(=O)Nc1cc(S(=O)(=O)N2CCOCC2)ccc1N1CCCC1 (centres undefined) | x | x | -27.2 | -2.4 | -6.5 | -1.8 | 2.5 | -10.8
Cc1ccc(SCC(=O)c2ccc[nH]2)cc1 | i | -9.4 | -16.0 | -5.6 | 2.9 | 0.9 | 2.7 | 7.4
Cc1cccc(COc2ccc(/C(O)=C3\C(=O)C(=O)N(CCN(C)C)C3c3ccncc3)cc2)c1 (centres undefined) | i | -13.3 | x | -9.6 | -1.6 | -1.6 | -4.0 | -3.6
O=C(NCc1ccco1)C(c1ccncc1)N(CCC1=CCCCC1)C(=O)Cn1nnc2ccccc21 (centres undefined) | i | -13.3 | x | -5.7 | x | 0.7 | -0.1 | -0.8
Cc1cc(Br)ccc1NC(=O)CN(C)C(=O)CN1C(=O)NC2(CCCC2)C1=O | i | 9.4 | -1.6 | x | x | 11.2 | -0.8 | x
COc1cc(C(=O)OCC(=O)c2cc(C)n(CC3CCCO3)c2C)ccc1OCC(=O)N1CCOCC1 (centres undefined) | i | 11.7 | 11.7 | x | -7.4 | -5.5 | -1.7 | x
Cc1ccc(NC(=O)COC(=O)CCc2ccc(S(=O)(=O)N3CCOCC3)cc2)cc1C | i | x | 3.4 | 1.3 | -5.9 | -2.3 | 2.4 | -16.7
CCOC(=O)C1=C(c2ccccc2)N=C2SCC(=O)N2C1c1ccc2c(c1)OCO2 (centres undefined) | i | -12.0 | x | -4.6 | -18.1 | 11.8 | 14.6 | -15.0
COC(=O)CN(c1nc(C)c(Cl)c(OC)n1)S(=O)(=O)c1ccc(C)cc1 | i | 2.7 | x | -8.1 | 7.2 | -7.0 | -8.9 | -8.1

A stretch of the results above, for reference:
SMILES | Rce1 inh | UUG fidelity | HIV Env fusion | eIF4H inh | CSC inhib | MT1-MMP act inh | MT1-MMP act inh RFP | PABP polyA inh | others
CCOC(=O)C1=C(c2ccccc2)N=C2SCC(=O)N2C1c1ccc2c(c1)OCO2 (centres undefined) | i | -12.0 | x | -4.6 | -18.1 | 11.8 | 14.6 | -15.0
COC(=O)CN(c1nc(C)c(Cl)c(OC)n1)S(=O)(=O)c1ccc(C)cc1 | i | 2.7 | x | -8.1 | 7.2 | -7.0 | -8.9 | -8.1

Next part.
SMILES | Rce1 inh | UUG fidelity | HIV Env fusion | eIF4H inh | CSC inhib | MT1-MMP act inh | MT1-MMP act inh RFP | PABP polyA inh | others
COC(=O)c1[nH]c2cccc(OC)c2c1NC(=O)C(C)N1CCC(C)CC1 (centres undefined) | x | x | 8.5 | -6.5 | -1.2 | x | x | -10.6
CCOC(=O)N1CCN(c2ncnc3c2cnn3-c2ccc(Cl)cc2)CC1 | i | x | x | -7.2 | x | x | x | -4.9
CCOc1ccc(C(=O)NCC(=O)N2CCN(C/C=C/c3ccccc3)CC2)cc1OCC | i | -8.6 | -1.3 | x | -11.0 | -3.6 | -3.1 | x
COc1ccc(CCn2c(SCC(=O)Nc3cc(C)on3)nc3ccsc3c2=O)cc1OC | x | 5.8 | 43.8 | 5.1 | -9.6 | 1.9 | -3.0 | -1.4
CC(C)CN1CCC(=O)N(CCSc2ccc(Br)cc2)CC1 | i | -22.5 | -38.4 | -1.4 | 35.7 | 1.2 | -1.9 | -3.8
Cc1cc(C)n(C2CC(=O)N(c3ccccc3)C2=O)n1 (centres undefined) | i | -10.3 | 23.8 | -1.3 | -5.8 | 3.0 | 3.6 | -7.5
CCC1(c2ccc(C)cc2)NC(=O)N(CC(=O)Nc2cccc(S(=O)(=O)N3CCCC3)c2)C1=O (centres undefined) | x | -3.5 | -9.2 | x | x | 6.5 | -4.4 | x
CC/C(=N/NC(=O)CCC(=O)Nc1ccccc1OC)c1ccccc1 | i | -4.8 | -12.0 | 1.5 | 3.5 | 0.2 | 1.8 | 6.5
Clc1ccc(/C=N/NC(=Nc2ccccc2)c2ccccn2)c(Cl)c1 | i | -72.5 | x | 4.5 | 5.2 | 1.6 | 2.0 | 4.6
O=C(Nc1ccccc1Cl)N1CCSc2ccccc21 | i | -14.7 | -42.6 | -4.1 | -2.5 | 0.0 | 4.6 | -1.7
Cc1ccc(NC(=O)CN(C)C(=O)CCCN2C(=O)c3ccccc3C2=O)cc1 | i | -2.6 | -37.0 | -9.0 | -4.7 | -2.1 | -1.0 | 2.6
CCCc1cc(=O)oc2cc(C)cc(OC(C)C(=O)NCc3ccncc3)c12 (centres undefined) | i | -15.0 | 3.7 | -5.1 | -7.6 | -6.1 | -1.1 | -4.6
COCCCNC(=O)CC1C[C@H](C(=O)N2CCCCC2)[C@@]2(CCc3ccccc3)c3[nH]c4ccccc4c3CCN2C1=O (some centres undefined) | x | -15.1 | -20.9 | x | -19.5 | -8.6 | -8.5 | x
C=CCC(C(=O)c1ccccc1)[N+](C)(C)CC=C (centres undefined) | i | x | -1.6 | -2.2 | -7.0 | 0.3 | 1.8 | -3.0
CCCC(CCC)C(=O)Oc1cc(C)[nH]c(=O)c1[N+](=O)[O-] | i | x | 3.9 | -1.1 | -8.6 | -0.1 | 6.3 | 4.7

Assay outcomes deposited in PubChem by several laboratories.
